Screening results: PubChem, several laboratories
Vif TR-FRET: inhibitors of Vif binding to APOBEC3G peptide, primary screen, biochemical, TR-FRET, GST-Vif 1-94, biotin-A3G peptide, dose response retest (AID 1117319). one-dose inhibition, %; IC50 in µM for titrated hits. Virion infectivity factor (Human immunodeficiency virus type 1 group M subtype B (isolate …. TR-FRET GST-Vif / biotin-A3G peptide binding; higher % means a stronger effect; test concentration not given here; strong numbers were not always called active. 260,000 compounds, 0.57% hits;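 active = above the screen mean plus three standard deviations and confirmed in dose response; inconclusive = results disagree or hit not tested in dose response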;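 also: Vif residues 1-94 fused to GST binding biotinylated APOBEC3G peptide 110-148; 0% = full assay without inhibitor and 100% = GST in place of GST-Vif; retest series ran down from 100 µM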
RanGTP-Imp inh: inhibitors of RanGTP-importin-beta interaction, primary screen, biochemical, FRET, CFP-Ran, YFP-importin-beta, homogeneous; Ran GTPase (GTP-bound) - importin-beta complex; cell-free CFP-Ran/YFP-importin-beta FRET ratio; inhibition, % (concentration not given with the values); 300,000 compounds, 1.1% hits; AID 2216, 2009;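 active = most replicates above 15%; inconclusive = exactly half above 15%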;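 also: 0% = DMSO wells and 100% = Ran loaded with GDP instead of GTP; wells of about 40 µL received 100 nL stock; the first replicate is given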
ALR inh: inhibitors of human ALR sulfhydryl oxidase, primary screen, biochemical, H2O2 detection, HRP-luminol luminescence, single point. inhibition, % (concentration not given with the values). FAD-linked sulfhydryl oxidase ALR (Homo sapiens), P55789. 290,000 compounds, 3.8% hits. purified ALR, DTT oxidation;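 active = mean and each replicate at 75% or more; inconclusive = only one of the two met; inactive = neither met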;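 also: stock transfer was 7.5 nL into about 7.5 µL; 0% = neutral wells and 100% = wells with inactivated enzyme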
Target sequence (P55789 whole entry, looked up): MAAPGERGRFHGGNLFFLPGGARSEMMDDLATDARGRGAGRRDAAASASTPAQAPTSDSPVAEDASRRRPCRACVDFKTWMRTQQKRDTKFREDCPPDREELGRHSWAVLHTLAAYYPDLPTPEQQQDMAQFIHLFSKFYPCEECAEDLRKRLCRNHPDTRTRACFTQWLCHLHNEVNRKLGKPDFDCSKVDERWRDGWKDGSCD
Calb FLC: C. albicans growth inhibition with fluconazole, primary screen, CaCi-2 strain, Alamar Blue fluorescence | C. albicans CaCi-2 (fluconazole-resistant clinical isolate) + fluconazole, 48 h | growth inhibition, % (no concentration beside the values) | 300,000 compounds, 0.57% hits | AID 1979, 2009;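 active = most replicates above 75%; inconclusive = exactly half above 75%; inactive = most below 75%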;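 also: all wells also contain fluconazole at 8 µg/ml as a sub-toxic cotreatment; 0% = median of DMSO wells and 100% = median of geldanamycin control wells; wells of about 8 µL received 7.5 nL stock; the first replicate is given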
HNF4A DNA FP: change in binding of human HNF4A to DNA, primary screen, biochemical, fluorescence polarization, FITC-DNA. Hepatocyte nuclear factor 4-alpha (Homo sapiens), P41235. 360,000 compounds, 0.3% hits. activity change, % at 10 µM. 1 h; in the data active = activity change above about 30%, passing the limit was not always enough;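 also: controls were the assay level and a saturating level of protein; the project sought stronger binding though the title names inhibitors; some compounds called inactive have numbers as strong as hits; positive values seem to mean higher polarization but the record does not say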
Target sequence (P41235 whole entry, looked up): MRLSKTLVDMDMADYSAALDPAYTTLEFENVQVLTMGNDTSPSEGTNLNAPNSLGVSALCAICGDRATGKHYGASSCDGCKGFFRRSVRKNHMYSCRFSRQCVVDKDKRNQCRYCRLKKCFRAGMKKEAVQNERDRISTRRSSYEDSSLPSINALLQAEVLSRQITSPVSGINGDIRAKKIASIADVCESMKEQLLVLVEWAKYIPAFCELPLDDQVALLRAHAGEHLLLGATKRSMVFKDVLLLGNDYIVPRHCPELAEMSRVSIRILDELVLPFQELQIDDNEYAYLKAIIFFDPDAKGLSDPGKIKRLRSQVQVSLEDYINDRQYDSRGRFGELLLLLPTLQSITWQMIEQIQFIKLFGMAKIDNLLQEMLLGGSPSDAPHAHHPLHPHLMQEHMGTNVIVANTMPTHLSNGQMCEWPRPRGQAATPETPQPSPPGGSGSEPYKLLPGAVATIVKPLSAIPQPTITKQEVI
B2AR ag: beta2AR agonists driving receptor internalization, primary screen, cell-based, FAP fluorogen, flow cytometry; AID 504454, 2011; response, % (concentration not given with the values); Am2.2-beta2AR cells; reference of the scale not given here; 340,000 compounds, 0.43% hits; Beta-2 adrenergic receptor (Homo sapiens), P07550;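 active = response above a set limit, near 3 SD of response in nonfluorescent compounds, cut at about 42% in these data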;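 also: stock transfer was 100 nL into about 11 µL; a reference agonist was the positive control; negative values mostly stem from fluorescent compounds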
Target sequence (P07550 whole entry, looked up): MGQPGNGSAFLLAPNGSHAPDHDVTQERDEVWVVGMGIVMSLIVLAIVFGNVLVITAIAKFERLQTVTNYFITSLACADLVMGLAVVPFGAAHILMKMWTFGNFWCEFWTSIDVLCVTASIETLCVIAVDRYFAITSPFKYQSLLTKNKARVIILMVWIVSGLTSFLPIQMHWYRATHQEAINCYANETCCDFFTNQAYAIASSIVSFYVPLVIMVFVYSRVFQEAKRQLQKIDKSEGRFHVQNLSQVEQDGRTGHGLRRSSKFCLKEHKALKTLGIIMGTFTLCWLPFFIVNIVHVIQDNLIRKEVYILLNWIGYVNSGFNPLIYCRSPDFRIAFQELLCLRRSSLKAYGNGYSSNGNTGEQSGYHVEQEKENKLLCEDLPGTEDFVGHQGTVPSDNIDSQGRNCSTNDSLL
LANA-H2A inh: blockers of LANA interaction with H2A/H2B – biochemical, FP readout, HTS, primary screen | cell-free LANA-H2A/H2B peptide, fluorescence polarization | inhibition, % (test concentration not listed) | 320,000 compounds, 0.6% hits | AID 2629, 2010; in the data active = inhibition mostly above about 10%, no sharp cut-off; inactive = mostly below about 6.7%;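 also: stock transfer was 7.5 nL into about 10 µL; 0% = median of vehicle wells and 100% = median of positive control wells; one replicate is shown; the record names a cut of 25% in any replicate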
* hit, by the source's call; ? = inconclusive; / = not tested or not shown.

Results follow in this order: Vif TR-FRET, RanGTP-Imp inh, ALR inh, Calb FLC, HNF4A DNA FP, B2AR ag, LANA-H2A inh
1	CCOC(=O)/C(=N\O)C1=NC(C)(C)Cc2ccccc21
→ 4%, 0.3, 1, -7, 1.1, 6, -2.8
2	O=C(CNC(=O)c1ccc(F)cc1)N/N=C/c1cc(Br)ccc1OCc1ccccc1
→ 10%, 10, -1, 16, 0.9, 8, 4.0
3	CCOc1ccc2ccccc2c1C(=O)Nc1cc(=O)n(C)c(=O)n1C
→ 18%, ?, /, 3, 0.5, 9, 4.6
4	CN(C(=O)c1c[nH]c(=O)cc1C(F)(F)F)c1ccc(Cl)c(Cl)c1
→ -1%, 2.6, -23, -5, -4.3, 3, -5.7
5	COc1cccc(-c2sc3ccc(OC)cc3c2C#CCCO)c1
→ /, /, 0, /, 5.2, 29, -4.9
6	COc1ccc(N(CC(=O)Nc2ccc(C)c(F)c2)S(=O)(=O)c2c(C)noc2C)cc1
→ 1%, 4.1, 4, 4, -1.6, 8, 1.8
7	CCC(=O)N1CCN(c2ccc(NC(=O)COc3ccc(CC)cc3)cc2)CC1
→ /, 4.1, 7, -7, -0.9, -3, 0.3
8	CC1(c2nnc(Cc3ccccc3)o2)CC(c2ccncc2)=NO1 (configuration not stated)
→ /, ?, /, -8, -1.5, -8, -0.6
9	CCN(CC)S(=O)(=O)c1ccc(C(=O)NCc2nnc(SCC(=O)OC)n2C)cc1
→ 0%, /, /, /, 2.2, 5, /
10	CCCOC(=O)c1c(-c2ccccc2)nc(CC)c(C(=O)SCC)c1CCC
→ /, /, -3, /, -0.2, 20, -0.7
11	COc1ccc(C(=O)Nc2ccc(NC(C)=O)cc2)cc1S(=O)(=O)N1CCCCC1C (configuration not stated)
→ -11%, /, -12, /, 1.4, -2, 5.6
12	O=C(NC(CO)c1ccccc1)c1ccco1 (configuration not stated)
→ 3%, 3.6, -5, 15, 0.1, 2, -0.6
13	CCOc1cc(NC(=S)Nc2ccccc2)c(OCC)cc1NC(=O)c1ccccc1
→ 1%, -3.2, -6, -6, -1.3, -2, 3.3
14	CC(=O)c1c(C)nc2ccc(Br)cc2c1-c1ccccc1
→ -5%, 1.7, -7, 53, -0.6, -2, 1.5
15	NS(=O)(=O)c1ccc(CCNC(=O)c2ccc3c(c2)OCO3)cc1
→ /, -1.4, -7, -2, 2.6, 3, 0.9

Along the list, as entered above.
HNF4A DNA FP, entries 7 to 15, in order: -0.9, -1.5, 2.2, -0.2, 1.4, 0.1, -1.3, -0.6, 2.6

(further entries)
Results follow in this order: Vif TR-FRET, RanGTP-Imp inh, ALR inh, Calb FLC, HNF4A DNA FP, B2AR ag, LANA-H2A inh
16	CCOC(=O)/C(O)=C/c1ncc(C(F)(F)F)cc1Cl
→ 2%, -1.1, 21, 3, -0.4, -4, 4.3
17	Cc1cc(C)n2nc(SCC(=O)N(Cc3ccccc3)C3CCS(=O)(=O)C3)nc2n1 (configuration not stated)
→ -3%, -4.2, -14, 6, 6.0, -8, 1.8
18	CC1Cc2ccccc2N1S(=O)(=O)c1cccc(C(=O)N2Cc3ccccc3CC2C(N)=O)c1 (configuration not stated)
→ -10%, /, 0, /, 0.3, 0, -0.8
19	O=C(Nc1ccccc1C(=O)Nc1ccc(Br)cn1)c1cccc([N+](=O)[O-])c1
→ /, 4.9, 7, -3, 2.1, 18, 0.8
20	COc1ccc(/C(=N/O)C(C)(C)NO)cc1
→ 3%, -0.3, 2, 0, 0.7, 0, 3.0
21	COc1ccc(CNC(=O)c2cc3c(s2)CN(Cc2ccccc2)C3)cc1
→ 8%, 1.6, /, 9, -1.8, 2, /
22	CC(C)CCOc1cccc(OCC(=O)Nc2ccncc2)c1
→ /, ?, /, 108*, 3.0, -19, 0.0
23	COc1cccc(CN(C)C(=O)CC23CC4CC(CC(C4)C2)C3)c1OC
→ /, ?, /, -2, 2.4, 12, 4.1
24	CCN(C(=O)COC(=O)c1cccnc1)c1cccc2ccccc12
→ /, /, -18, /, 5.2, 16, 0.5
25	COC(=O)c1c(NC(=O)C2=COCCO2)sc(C)c1C
→ 3%, 4.6, /, 9, -0.7, 1, /
26	COC(=O)c1cccnc1-n1c(=O)c2cccnc2n(Cc2cccc(OC)c2)c1=O
→ -3%, 1.8, 0, 6, 5.7, 23, 0.0
27	Cn1c(=O)n(C)c2cc(NC(=O)CSc3nnc(-c4ccccc4O)n3-c3ccccc3)ccc21
→ 4%, -1.9, -2, -15, 1.3, 8, 1.9
28	NC(=O)c1ccc(NC(=O)CC23CC4CC(CC(Br)(C4)C2)C3)cc1
→ /, -1.1, 2, -1, -1.1, 0, 2.4
29	CCCCn1c(N)c(N(CC(C)C)C(=O)C2CCC2)c(=O)[nH]c1=O
→ -3%, /, 0, /, -0.1, -1, -0.4
30	CCOC(=O)N1CCN(S(=O)(=O)c2ccc(C(=O)Nc3nc4c(s3)CC(C)CC4)cc2)CC1 (configuration not stated)
→ -2%, 0.2, 10, 3, 4.2, 6, -0.7

(more compounds)
Results follow in this order: Vif TR-FRET, RanGTP-Imp inh, ALR inh, Calb FLC, HNF4A DNA FP, B2AR ag, LANA-H2A inh
31	O=C(CSc1ncnc2c1cnn2-c1ccc(F)cc1)NC1CCCC1
→ /, ?, 1, -9, 1.4, -9, 3.8
32	NS(=O)(=O)c1ccc(CCNC(=O)CCCOc2ccccc2)cc1
→ 0%, 0.3, -8, 10, 4.4, -7, 1.8
33	c1nc2n(n1)C1=C(CCCC1)C1(CCCCC1)N2
→ -1%, 15*, -3, 21, -0.9, -8, 0.4
34	CC(C)C(=O)Nc1ccc(C(=O)NNC(=O)C(c2ccccc2)c2ccccc2)cc1
→ -5%, 1.4, -3, 18, 2.5, -5, 2.4
35	CCN(CC(=O)Nc1ccc2c(c1)OCCO2)C(=O)c1ccc(CS(C)(=O)=O)cc1
→ -3%, /, -4, /, -4.8, 3, 0.3
36	CC(=O)C1C(c2ccco2)c2c(noc2C)CC1(C)O (configuration not stated)
→ 2%, 0.7, -27, -9, 0.6, 4, 6.4
37	O=C(CCOc1ccccc1)Nc1ccnn1C1CCN(Cc2ccccc2)CC1
→ /, 1.3, -8, -8, 2.0, -3, 2.9
38	CCC1Nc2ncnc(N3CCOCC3)c2N(Cc2ccc(C)cc2)C1=O (configuration not stated)
→ /, 0.5, -8, -2, 2.6, 4, -0.4
39	Cc1c(OC(C)C(=O)NCC2CCC(C(=O)O)CC2)ccc2c1oc(=O)c1ccccc12 (configuration not stated)
→ /, 5.3, /, -4, -5.0, 0, 14
40	C=CCOc1ccc(CNc2nn[nH]n2)cc1OC
→ 8%, 1.9, -4, ?, -2.5, 0, -0.3
41	COc1cc(OC)c(C2=NOC(C(=O)NCc3ccc4c(c3)OCO4)C2)cc1Cl (configuration not stated)
→ 4%, 4.5, -20, -13, -0.9, -10, -3.2
42	Cc1ccc(-n2c([C@@H]3C[C@H]3c3ccccc3)n[nH]c2=S)cc1
→ /, 1.9, 85*, -9, 3.2, -3, 2.6
43	NC(=O)c1c(NC(=O)c2ccc([N+](=O)[O-])o2)sc2c1CCCC2
→ /, 6.6, -9, 0, 0.7, 32, 4.8
44	CCCNC(=O)c1ccccc1N1CCN(CCCCN2C(=O)C3CCCCN3C2=O)CC1 (configuration not stated)
→ -2%, 2.2, -11, -6, -0.6, 8, -1.0
45	CC(C)NC(=O)c1onc(CSc2cccc3ccccc23)c1C(=O)O
→ 1%, 3.4, 98*, -14, -1.1, 5, -2.3

(cont.)
Results follow in this order: Vif TR-FRET, RanGTP-Imp inh, ALR inh, Calb FLC, HNF4A DNA FP, B2AR ag, LANA-H2A inh
46	COc1ccc(O)c(C(=O)c2cnn(S(=O)(=O)c3ccc(C)cc3)c2)c1
→ 5%, /, /, /, 7.0, -1, -5.5
47	COc1ccc(C(=O)C[n+]2ccc3c(c2)nc(-c2cc(OC)c(OC)cc2OC)n3C)cc1
→ -3%, 5.4, -13, 29, 0.4, -5, 2.6
48	CCOc1ccccc1NC(=O)C1CCCN(C(=O)Nc2ccccc2)C1 (configuration not stated)
→ 8%, -3.9, 0, 17, -1.3, -4, -9.1
49	O=C(CSc1nnc(-c2cccnc2)n1CCN1CCCCC1)Nc1cccc(Cl)c1
→ -2%, ?, -2, -34, 1.3, -11, 1.3
50	O=C(Nc1cccc(S(=O)(=O)Nc2ccc(Cl)cc2)c1)c1ccc[n+]([O-])c1
→ /, 2.6, -5, 3, -4.4, -9, -2.2
51	O=C(C1CCCCC1)N(Cc1ccccc1)c1ccccn1
→ -8%, -2.0, -1, -3, 0.2, -1, 2.4
52	CCC/C(=N/Nc1ccc(Cl)cc1)c1cnnc(-c2ccccc2)n1
→ /, 8.1, 38, -13, /, /, -0.4
53	COc1ccc(C)cc1NC(=O)c1ccc(NS(=O)(=O)c2cccs2)cc1
→ /, 7.6, -22, 1, 0.7, 8, 1.2
54	CSc1nc2ncc(C#N)cn2n1
→ 15%, -3.4, -6, 19, 0.9, 4, 2.1
55	CC[C@H](C)[C@@H](C(=O)NCCCCCCCCCCC(=O)N1CCNCC1)n1cc(CCCCCN)nn1
→ /, /, -29, /, 5.0, -2, 2.1
56	CC1CCC(NC(=O)COC(=O)CCC(=O)c2ccc(Cl)s2)CC1 (configuration not stated)
→ -9%, 1.5, /, 3, 0.8, -4, 2.3
57	Cc1cccc(C)c1Nc1nnc(SCC(=O)NC(=O)c2cccn2C)s1
→ 4%, -3.6, -18, 1, 3.9, 3, 2.1
58	C#CCOCCOCCOCCNc1nc(N2CCN(C(=O)[C@H](CCC(=O)O)n3cc(C(N)CC(C)C)nn3)CC2)nc(N2CCN(C(=O)[C@H](CCC(=O)O)n3cc(C(N)CC(C)C)nn3)CC2)n1 (some centres not stated)
→ /, -3.4, /, 1, -2.2, -5, 1.2
59	c1ccc(OCCSc2ncnc3nc[nH]c23)cc1
→ /, 2.3, -2, -16, 1.4, -9, -3.3

Looked up by structure from the list above (six):
Results follow in this order: Vif TR-FRET, RanGTP-Imp inh, ALR inh, Calb FLC, HNF4A DNA FP, B2AR ag, LANA-H2A inh
52	CCC/C(=N/Nc1ccc(Cl)cc1)c1cnnc(-c2ccccc2)n1
→ /, 8.1, 38, -13, /, /, -0.4
50	O=C(Nc1cccc(S(=O)(=O)Nc2ccc(Cl)cc2)c1)c1ccc[n+]([O-])c1
→ /, 2.6, -5, 3, -4.4, -9, -2.2
51	O=C(C1CCCCC1)N(Cc1ccccc1)c1ccccn1
→ -8%, -2.0, -1, -3, 0.2, -1, 2.4
55	CC[C@H](C)[C@@H](C(=O)NCCCCCCCCCCC(=O)N1CCNCC1)n1cc(CCCCCN)nn1
→ /, /, -29, /, 5.0, -2, 2.1
57	Cc1cccc(C)c1Nc1nnc(SCC(=O)NC(=O)c2cccn2C)s1
→ 4%, -3.6, -18, 1, 3.9, 3, 2.1
58	C#CCOCCOCCOCCNc1nc(N2CCN(C(=O)[C@H](CCC(=O)O)n3cc(C(N)CC(C)C)nn3)CC2)nc(N2CCN(C(=O)[C@H](CCC(=O)O)n3cc(C(N)CC(C)C)nn3)CC2)n1 (some centres not stated)
→ /, -3.4, /, 1, -2.2, -5, 1.2
